# VCAM-1 down: inhibitors of TNFa-induced VCAM-1 surface display, cell-based, plate reader, pooled HUVEC, TNFa stimulus (AID 454) | HUVEC TNFa-induced VCAM-1 surface immunofluorescence, plate reader; numbers were filed only for top-ranked candidate wells | inhibition, % at 5 µM | 0.2% of 10,000 active;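 active = compound among top-ranked inhibitors of TNF-induced VCAM-1 adhesion protein staining, with the hit upheld by image or statistical review; inactive = the rest, including hits rejected on review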;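 also: 0% = TNFa with vehicle and 100% = cells without TNFa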
# FPR binder: human FPR ligands by binding competition, primary screen, cell-based, FPRL1 counter-screen, flow cytometry | fMet-Leu-Phe receptor (Homo sapiens), P21462 | FPR-expressing cells, fluorescent ligand binding | inhibition, %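 (tested at 6.7 µM)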 | 0.74% of 24,000 active | AID 440, 2006;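 also: 0% = buffer wells and 100% = receptor blocker peptide wells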
# Target sequence (P21462 whole entry, looked up): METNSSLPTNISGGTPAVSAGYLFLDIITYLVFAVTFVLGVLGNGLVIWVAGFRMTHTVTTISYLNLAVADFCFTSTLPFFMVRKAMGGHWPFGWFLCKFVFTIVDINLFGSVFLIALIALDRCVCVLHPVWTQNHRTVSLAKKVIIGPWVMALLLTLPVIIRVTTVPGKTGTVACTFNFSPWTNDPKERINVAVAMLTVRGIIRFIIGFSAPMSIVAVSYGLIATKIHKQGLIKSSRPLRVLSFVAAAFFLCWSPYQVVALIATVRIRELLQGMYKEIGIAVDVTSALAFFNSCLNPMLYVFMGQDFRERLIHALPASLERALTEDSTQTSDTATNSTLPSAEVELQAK
# VCAM-1 down imaging: inhibitors of TNFa-induced VCAM-1 surface display, imaging, high-content imaging, pooled HUVEC, TNFa stimulus (AID 456). 0.2% of 10,000 active. HUVEC TNFa-induced VCAM-1 surface expression, immunofluorescence imaging; numbers were filed only for top-ranked candidate wells. inhibition, % at 5 µM, or IC50 in µM where a hit was titrated;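 active = top tenth filtered wells with inhibition above zero that passed visual or statistical confirmation; inactive = the rest, including hits rejected on review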;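 also: 0% = stimulated vehicle wells and 100% = unstimulated cells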
# VCAM-1 augmentation: enhancers of VCAM-1 display on endothelial cells, imaging, high-content imaging, pooled HUVEC, TNFa stimulus (AID 457); Pooled HUVEC, TNFa-induced VCAM-1 immunofluorescence imaging; hits of this screen are not shown here; calls only; 0.2% of 10,000 active;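 active = a top-ranked rise in VCAM-1 staining upheld on image or statistical review; inactive = the rest, including candidates rejected on review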;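 also: compounds tested at 5 µM in the well; cells exposed to compound for 24 hours before fixing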
# FPRL1 binder: human FPRL1 ligands by binding competition, primary screen, cell-based, FPR counter-screen, flow cytometry; N-formyl peptide receptor 2 (Homo sapiens), P25090; FPRL1-expressing cells, fluorescent ligand binding inhibition; inhibition, %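 (tested at 6.7 µM)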; 0.3% of 24,000 active; AID 441, 2006;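 also: 0% = buffer alone and 100% = receptor blocker peptide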
# Target sequence (P25090 whole entry, looked up): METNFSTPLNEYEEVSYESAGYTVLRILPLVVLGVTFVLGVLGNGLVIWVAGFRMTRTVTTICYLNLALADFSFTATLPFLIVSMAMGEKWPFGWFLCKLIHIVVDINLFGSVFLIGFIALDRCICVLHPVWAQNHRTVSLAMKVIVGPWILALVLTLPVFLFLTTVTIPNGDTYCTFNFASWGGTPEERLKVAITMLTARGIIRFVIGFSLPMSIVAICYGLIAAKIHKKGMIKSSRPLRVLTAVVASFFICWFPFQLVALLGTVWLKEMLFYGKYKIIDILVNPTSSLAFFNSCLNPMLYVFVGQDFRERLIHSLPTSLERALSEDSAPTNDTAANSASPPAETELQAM
# An asterisk follows results filed as active; i = inactive; . = no result given.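 The calls were made as follows, unless noted: active = mean above 30%; inconclusive = self-fluorescent; inactive = the rest.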 A portion of the library; count on the stated rates, not on these rows.
SMILES,VCAM-1 down,FPR binder,VCAM-1 down imaging,VCAM-1 augmentation,FPRL1 binder
CSc1sc(C)cc1C1C(C#N)=C(N)N(c2cccnc2)C2=C1C(=O)CCC2 (stereo not drawn),.,4.3,.,.,-0.1
COc1ccc2c(c1)OC(O)(C(F)F)CC2=O (stereo not drawn),i,-1.3,i,i,2.4
Cc1ccc(C2C3CN(C(C)C)CC=C3C(C#N)=C(N)C2(C#N)C#N)cc1 (stereo not drawn),i,12.0,i,i,-0.6
CCCNC(=O)Cn1cnc2sc(C(=O)N3CCCC(C(=O)OCC)C3)c(C)c2c1=O (stereo not drawn),.,-0.7,.,.,1.6
O=C(c1ccco1)N1CCN(c2nc(C(F)(F)F)nc3c2nnn3Cc2ccccc2)CC1,i,5.9,i,i,-6.6
CC1(C)CC(=O)N(CC(=O)O)c2ccccc2S1,.,0.7,.,.,-1.9
Cn1c(NCc2ccccc2Cl)nc2ccccc21,.,-0.5,.,.,-0.1
CCC(C)NC(=O)C1(C)CCC(=O)N1Cc1ccccc1OC (stereo not drawn),i,0.0,i,i,0.4
O=c1[nH]c2cc3c(cc2cc1C(c1nnnn1C1CCCCC1)N1CCSCC1)OCCO3 (stereo not drawn),i,9.3,i,i,7.3
O=C(Nc1ccc2c(c1)OCO2)c1noc2c1CCCCC2,.,-1.8,.,.,1.7
CCOC(=O)N1CCN(C(c2cccc(OC)c2)c2sc3nc(C)nn3c2O)CC1 (stereo not drawn),.,4.2,.,.,7.6
CCOc1ccc(OCC)c(NC(=O)CCCN2C(=O)c3cccnc3C2=O)c1,i,-5.9,i,i,1.7
COc1ccc2[nH]c(C)c(CCN3C(=O)C4C5C=CC(C5)C4C3=O)c2c1 (stereo not drawn),.,-6.1,.,.,-7.4
Cc1ccc2c(c1)-c1c(cnn1CC(=O)Nc1ccccc1N1CCN(C)CC1)CO2,70.6,-1.7,71.0%,i,-2.9
COc1cccc(-c2nn(C)c3sc(C(=O)Nc4ccc5c(c4)OCCO5)cc23)c1,.,6.5,.,.,5.4
COc1cc2c(cc1NC(=O)CSc1nnc(Cc3cccs3)n1C)oc1ccccc12,i,-4.8,i,i,-4.7
COc1cc(C(=O)N(C)c2nnc(-c3cccnc3)s2)cc(OC)c1OC,i,-8.6,i,i,3.1
O=C(Nc1ccc2oc(Cc3ccc(Cl)cc3)nc2c1)c1cccnc1,i,6.5,i,i,5.2
Cc1cc(C(=O)Nc2sc(C)c(-c3ccc(F)cc3)c2C(N)=O)no1,.,-4.0,.,.,-15.6
CN(C)/C=N/c1c(C(=O)NCc2ccccc2)nnn1Cc1ccccc1,.,0.6,.,.,-2.3
CCc1c(C(=O)NC2CCCCC2)[nH]c(C)c1C(C)=O,.,0.4,.,.,-1.9
CCCCN(C)S(=O)(=O)c1ccc(C(=O)Nc2nnc(CSC)o2)cc1,.,2.7,.,.,0.8
CC(C)Cn1cc(C(=O)N2CCN(c3ccccn3)CC2)c2c3ccccc3n(C)c2c1=O,.,2.5,.,.,2.2
COc1ccc2nc(NC(=O)CN(c3ccc(C)cc3)S(=O)(=O)c3c(C)nn(C)c3C)sc2c1,.,-4.2,.,.,4.2
Cn1c(=O)[nH]c(=O)c2c1nc(NC1CCCCC1)n2CC(=O)NC1CCCCC1,i,8.1,i,i,3.7

# More compounds:
SMILES,VCAM-1 down,FPR binder,VCAM-1 down imaging,VCAM-1 augmentation,FPRL1 binder
COC(=O)CSc1nnc(CNC(=O)c2ccccc2OC)n1C,.,1.3,.,.,-4.6
CCOC(=O)Cc1csc(NC(=O)CSc2nnc(C3CC3)n2C)n1,i,-0.3,i,i,0.6
C/C(Cl)=C\CSc1nnc2n(N)c(=O)c3ccccc3n12,.,0.1,.,.,1.3
CCOC(=O)C1CCN(S(=O)(=O)c2cccc3nonc23)CC1,.,-5.9,.,.,7.8
COc1ccc2ccccc2c1C1CC(=O)N2CN(C3CCCCC3)CSC2=C1C#N (stereo not drawn),.,64.1*,.,.,1.5
CCOC(=O)C(C(=O)OCC)C(C)C#CCN1CCCCC1 (stereo not drawn),i,-1.6,i,i,1.6
CCN1C(=O)CC(C(=O)Nc2ccc(F)cc2)SC1=Nc1ccc2c(c1)OCO2 (stereo not drawn),i,-13.8,i,i,-4.2
O=C(CSc1nc2c(sc3ccccc32)c(=O)n1CCO)NCC1CCCO1 (stereo not drawn),.,-0.6,.,.,-2.5
Cn1c(=O)cc(SCC(=O)Nc2cccnc2)c2ccccc21,.,6.4,.,.,0.4
Cc1ccc(CS(=O)(=O)CCC(=O)NCc2cccs2)cc1,.,-4.4,.,.,4.1
O=C(O)CCN1C(=O)c2ccncc2C1=O,.,-1.9,.,.,0.7
CC(C)CNC(=O)c1cccc(Cn2cc(Cl)cn2)c1,.,-2.1,.,.,-0.9
Cc1ccc(NS(=O)(=O)c2ccc(NC(=O)[C@@H]3CCCC[C@@H]3C(=O)O)cc2)c(C)c1,.,-2.6,.,.,5.6
COc1ccc(NC(=O)C2C(=O)N(CCO)C3(C)CC2c2ccccc2O3)cc1 (stereo not drawn),.,18.5,.,.,15.7
COc1ccc(-c2cc(C(F)(F)F)nc(N3CCN(C)CC3)n2)cc1OC,.,-10.6,.,.,0.0
Cc1nn(C)c(C)c1S(=O)(=O)N(CC(=O)NCc1ccco1)c1ccc(C(C)C)cc1,.,1.0,.,.,4.2
CCOc1cccc(C2C(C#N)=C(N)Oc3cc(C)n(Cc4ccccn4)c(=O)c32)c1OCC (stereo not drawn),.,5.9,.,.,5.8
COCC(=O)OCn1nnc2ccccc2c1=O,.,-5.0,.,.,8.1
CCc1ccccc1N1CC23C=CC(O2)C(C(=O)O)C3C1=O (stereo not drawn),i,-0.5,i,i,0.4
O=C(NCC1CCCO1)C1CCN(S(=O)(=O)c2cccnc2)CC1 (stereo not drawn),.,-2.8,.,.,11.4
COc1ccc(C2Sc3nncn3N2Cc2ccc(C#N)cc2)cc1 (stereo not drawn),.,2.5,.,.,6.4
COc1ccccc1CNC(=O)C1CCN(c2nc3ccccc3o2)CC1,.,-1.3,.,.,3.1
CC1=CC=CC2=NC(=O)CC(C)(C(=O)N(CC(=O)NC(C)C)C3CCCC3)N12 (stereo not drawn),i,-9.1,i,i,-1.2
CCCn1c(SCC(=O)Nc2nnc(-c3ccccc3)s2)nnc1-c1ccccn1,i,-1.5,i,i,-1.0
Cc1onc(-c2ccccc2)c1C(=O)Nc1ccnn1C1CCCCC1,i,-7.4,i,i,-3.1

# The listing continues.
SMILES,VCAM-1 down,FPR binder,VCAM-1 down imaging,VCAM-1 augmentation,FPRL1 binder
CN=Cc1cc(-c2ccccc2)sc1O,i,-1.6,i,i,-1.9
O=C(O)C1CCCCC1C(=O)NCCc1ccccc1 (stereo not drawn),i,2.7,i,i,-3.0
CC1CCN(S(=O)(=O)N2CCC(C(=O)N3CCC(N(C)CC4CCCO4)CC3)CC2)CC1 (stereo not drawn),.,0.8,.,.,-0.2
N#Cc1c(-c2ccco2)nc(SCC(=O)Nc2cccc(Cl)c2)[nH]c1=O,.,6.7,.,.,-5.2
CCCNC(=O)C1CC(=O)N(c2ccc(OCC(=O)Nc3cccc(C)c3C)cc2)C1 (stereo not drawn),.,-1.4,.,.,-4.6
CCn1cc(C(=O)NCc2cccs2)c(=O)c2cc(S(=O)(=O)N3CCOCC3)ccc21,.,-0.8,.,.,-4.5
CCOC(=O)N1CCN(S(=O)(=O)c2ccc3c(c2)CCN3C(=O)CC)CC1,.,0.8,.,.,-0.3
COc1cccc(N2CCN(CC(=O)NCc3cccs3)CC2)c1,i,8.4,i,i,-2.3
CCOc1ccc(CCNC(=O)Cc2nn[nH]n2)cc1OCC,.,1.9,.,.,5.9
Cn1c2c(c3ccccc31)CCSC2=O,.,-2.7,.,.,0.0
Cc1ccc(NC(=O)Cn2nnc(C(=O)NCc3ccccc3)c2N)cc1C,.,-4.0,.,.,-1.7
CC1CC(=O)C2=C(C1)OC(N)=C(C#N)C2c1coc2ccccc2c1=O (stereo not drawn),i,-0.5,i,i,7.5
CCOC(=O)N1CCN(C(=O)c2n[nH]c(=O)c3ccccc23)CC1,i,-4.7,i,i,0.1
Cn1nc(C(C)(C)C)cc1C(=O)NCc1ccc(N2CCCC2=O)cc1,i,-2.2,i,i,-0.8
CCCC(=O)Nc1ccc(OCC(O)CNC(C)C)c(C(C)=O)c1 (stereo not drawn),i,-11.9,i,i,-3.6
COCCCNC(=O)C1CCN(S(=O)(=O)N(CC(C)C)CC(C)C)CC1,.,1.5,.,.,-3.4
CCOc1ccc(-c2nnc(SCC(=O)N3CCN(c4ccccc4)CC3)o2)cc1,i,5.1,i,i,-0.2
CC(C)N(C(=O)COC(=O)c1ccc(O)cc1)C(C)C,i,-6.4,i,i,-7.1
NC1(N)OC(CN2C(=O)c3ccccc3C2=O)CS1 (stereo not drawn),.,-3.8,.,.,10.9
Cc1ccccc1CNC(=O)Nc1cccs1,.,0.0,.,.,0.5
CCOc1ccc(Cl)cc1S(=O)(=O)N1CCCC1,i,5.7,i,i,-2.3
Cc1ccc(Cl)cc1-n1c(=O)cc(N2CC(C)OC(C)C2)[nH]c1=O (stereo not drawn),.,-1.6,.,.,-2.8
Cc1nc(C)c(C(=O)C2=C(O)C(=O)N(CCN3CCOCC3)C2c2cccnc2)s1 (stereo not drawn),i,3.8,i,i,4.8
COc1cc(CN(C)CCc2ccccn2)cc(OC)c1OC,.,-0.7,.,.,-4.3
Cc1oc2c(CN3CCCC3)c(O)ccc2c(=O)c1-c1ccc(Cl)cc1,.,-7.0,.,.,-5.8
COc1ccc(C2C(C#N)=C(C)NC3=C2C(=O)CC(C)(C)C3)c(OC)c1 (stereo not drawn),i,-3.2,i,i,-2.4
COc1cccc(C(=O)NCc2nnc(SCC(=O)Nc3nccs3)n2-c2ccccc2)c1,i,5.2,i,i,-4.8
COc1ccccc1C(=O)N1CCCC(c2nc(-c3cc(OC)c(OC)c(OC)c3)no2)C1 (stereo not drawn),i,-1.9,i,i,-3.8
COc1cccc2cc(C(=O)C3=C(O)C(=O)N(CCN4CCOCC4)C3c3cccs3)oc12 (stereo not drawn),.,1.6,.,.,1.8
CCOC(=O)N1CCN(C(=O)c2cn(CC(C)C)c(=O)c3c2c2ccccc2n3C)CC1,.,1.1,.,.,12.0

# 14 compounds already listed, sorted by number of heavy atoms, largest number first:
SMILES,VCAM-1 down,FPR binder,VCAM-1 down imaging,VCAM-1 augmentation,FPRL1 binder
COc1cccc2cc(C(=O)C3=C(O)C(=O)N(CCN4CCOCC4)C3c3cccs3)oc12 (stereo not drawn),.,1.6,.,.,1.8
CCOC(=O)N1CCN(C(=O)c2cn(CC(C)C)c(=O)c3c2c2ccccc2n3C)CC1,.,1.1,.,.,12.0
CCn1cc(C(=O)NCc2cccs2)c(=O)c2cc(S(=O)(=O)N3CCOCC3)ccc21,.,-0.8,.,.,-4.5
CCOc1ccc(-c2nnc(SCC(=O)N3CCN(c4ccccc4)CC3)o2)cc1,i,5.1,i,i,-0.2
Cc1ccc(NC(=O)Cn2nnc(C(=O)NCc3ccccc3)c2N)cc1C,.,-4.0,.,.,-1.7
CCOC(=O)N1CCN(S(=O)(=O)c2ccc3c(c2)CCN3C(=O)CC)CC1,.,0.8,.,.,-0.3
COCCCNC(=O)C1CCN(S(=O)(=O)N(CC(C)C)CC(C)C)CC1,.,1.5,.,.,-3.4
CCCC(=O)Nc1ccc(OCC(O)CNC(C)C)c(C(C)=O)c1 (stereo not drawn),i,-11.9,i,i,-3.6
CCOc1ccc(CCNC(=O)Cc2nn[nH]n2)cc1OCC,.,1.9,.,.,5.9
O=C(O)C1CCCCC1C(=O)NCCc1ccccc1 (stereo not drawn),i,2.7,i,i,-3.0
NC1(N)OC(CN2C(=O)c3ccccc3C2=O)CS1 (stereo not drawn),.,-3.8,.,.,10.9
CCOc1ccc(Cl)cc1S(=O)(=O)N1CCCC1,i,5.7,i,i,-2.3
Cc1ccccc1CNC(=O)Nc1cccs1,.,0.0,.,.,0.5
CN=Cc1cc(-c2ccccc2)sc1O,i,-1.6,i,i,-1.9
